D2 PAM: human D2 receptor positive allosteric modulation; 360,000 compounds, 0.23% hits; DiscoveRx D2 beta-arrestin cells, luminescence, 90 min; 100% = 57 uM dopamine signal; potentiation, % (concentration not given with the values); P14416; active = potentiation of 50% or more; inconclusive = 30% to 50%; inactive = 30% or less;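 note: tested on top of an EC20 dose of dopamine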
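D2 cells co-treated with compound plus 50 nM dopamine (EC20) for 90 min at 37 deg C to detect potentiation. Beta-arrestin recruitment was read as enzyme-fragment luminescence after 1 h at ambient temperature. Full response was set by 57 uM dopamine.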
CtBP-E1A inh: CtBP/E1A binding inhibition. AlphaScreen GST-E1A/His-CtBP binding, 1536-well; active compounds read low; control for the full effect not named in the record. AID 651724. 340,000 compounds, 0.49% hits. activity change, % (test concentration not listed); in the data active means activity change below about -65%; inconclusive means about -30% to -65%; inactive means above about -30%; note: % is set by controls: 0 for no effect and ±100 for the full control effect
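Protein mix (5X: 125 nM each GST-E1A, His-CtBP) was incubated with pinned compound 2 h at 37 deg C in dark, in 50 mM Tris pH 8.0 buffer with 300 mM NaCl. Glutathione donor and nickel acceptor beads followed; AlphaScreen signal read after 1 h.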
D2 ag: human D2 receptor agonism in beta-arrestin assay | AID 624465 | 360,000 compounds, 0.084% hits | activation, % (test concentration not listed) | DiscoveRx PathHunter D2 beta-arrestin, luminescence, 90 min; 100% = 57 uM dopamine signal | P14416; in the data active = activation above about 40%; inconclusive = about 15% to 40%; inactive = below about 15%; note: compound concentration not given in the record; the text of the record calls up to 30% inactive
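Agonist mode: compounds alone added to overnight-plated D2 PathHunter cells for 90 min at 37 C, with 57 uM final dopamine (EC100) defining full response. Beta-arrestin recruitment detected by chemiluminescent reagent, read after 1 h at ambient temperature.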
PINK1 expr mod: modulators of PINK1 expression; PINK1 immunofluorescence, high-content cytometry, 24 h; Potency, µM (highest dose often 76.6 µM), for inactives: at the highest dose activation (PINK1 increase), hits mostly activators; 410,000 compounds, 0.2% hits; AID 624263; active = well fitted activation curve with a large enough effect; inconclusive = small, poorly fitted or top-dose-only effect; inactive = flat fitted curve, though single readings scatter; cell line not stated here;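 note: potency is the fitted concentration of half-maximal effect; % of control where 0% means no effect; nearly all actives have a fitted effect of over 65% in size; a mitochondrial uncoupler was the plate control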
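A stable cell line was treated with compounds at 5 concentrations for 24 hours, with CCCP as control. PINK1 levels and mitochondrial localization were measured by immunofluorescence with mitochondrial, cell and nuclear markers after fixation, read by laser-scanning cytometry.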
TRPML1 ag: activates the human TRPML1 channel. 410,000 compounds, 0.12% hits. Q9GZU1. activation, % (no concentration beside the values). AID 624414. TRPML1-expressing cells, Ca2+ dye fluorescence, FDSS; host cell line not named in the record; reference of the full effect not given here; in the data active = activation above about 50%; inconclusive = about 30% to 50%; inactive = below about 30%; note: 0% is about no effect; the text of the record puts the active cut at 80%
Target sequence (Q9GZU1 whole entry, looked up): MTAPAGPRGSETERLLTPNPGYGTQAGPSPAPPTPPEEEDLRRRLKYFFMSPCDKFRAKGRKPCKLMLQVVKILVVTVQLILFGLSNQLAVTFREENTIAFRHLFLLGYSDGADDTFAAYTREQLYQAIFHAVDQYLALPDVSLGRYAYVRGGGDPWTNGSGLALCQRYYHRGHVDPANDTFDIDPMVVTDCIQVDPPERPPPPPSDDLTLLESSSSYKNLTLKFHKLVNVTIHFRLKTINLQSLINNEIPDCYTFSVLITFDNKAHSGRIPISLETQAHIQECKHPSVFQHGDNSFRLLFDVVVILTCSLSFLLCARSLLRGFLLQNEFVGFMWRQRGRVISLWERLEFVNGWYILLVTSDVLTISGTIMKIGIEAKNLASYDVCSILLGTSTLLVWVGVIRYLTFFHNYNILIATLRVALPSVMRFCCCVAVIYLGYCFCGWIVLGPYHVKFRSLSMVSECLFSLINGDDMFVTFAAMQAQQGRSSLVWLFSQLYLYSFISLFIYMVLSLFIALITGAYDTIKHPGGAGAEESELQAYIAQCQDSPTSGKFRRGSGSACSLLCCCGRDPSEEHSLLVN
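Cells: TRPML1-DL, 1X Tet inducer, ~16 h at 37 degrees C/5% CO2. Dye: ABD Ca8 no-wash + quencher, 45-90 min RT. Read: 10 s baseline, compound add, 110 s agonist phase; 54-4 EC80 (4uM final), 110 s antagonist phase.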
Six1-Eya2 inh: blocks human Six1 binding to Eya2; activity change, % (test concentration not listed); 360,000 compounds, 0.56% hits; AID 651725; AlphaScreen GST-Six1/His-Eya2 binding, biochemical; active compounds read low; control for the full effect not named in the record; Q15475+O00167; in the data active = activity change below about -65%; inconclusive = about -30% to -65%; inactive = above about -30%; note: % is set by controls: 0 for no effect and ±100 for the full control effect
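Homogeneous AlphaScreen proximity assay pairing GST-Six1 with His-tagged Eya2 (added as 5X mix: 250 nM and 500 nM) in 50 mM Tris pH 8.0, 300 mM NaCl, 1 mM TCEP. Glutathione donor and nickel acceptor beads; 1 h, 37 °C, dark.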
* = called active by the depositor; ? = inconclusive; / = not tested or not shown; [ ] = remark or other dose.

compound	D2 PAM	PINK1 expr mod	Six1-Eya2 inh	CtBP-E1A inh	D2 ag	TRPML1 ag
CCOC(=O)Nc1cccc(OCC(=O)Nc2ccccc2OC)c1	-5	-2.4%	-4	-12	0.0	1.0
Nc1c(C=C2C=CC(=O)C=C2)c(=O)nc2sc(CC(=O)N3CCCCC3)nn12	-22	-0.7%	-10	-13	-5.7	0.4
COc1ccc(-c2nc3cc(C)ccn3c2NC(=O)c2c(F)cccc2Cl)cc1	8	14%	-1	-9	-6.3	1.7
COc1ccc(-c2csc(/C(C#N)=C\c3ccc(O)c([N+](=O)[O-])c3)n2)cc1OC	-2	1.6%	4	0	-5.5	0.7
O=C1NC(=O)/C(=C/c2ccc(-c3cc(C(=O)O)ccc3Cl)o2)S1	-22	1.9%	-8	/	-6.5	-0.5
CC(=O)C1(C)N(O)C(C)(C)C(c2ccco2)=[N+]1[O-] (configuration not stated)	-4	-0.9%[38.3 µM]	3	1	-1.3	0.1
COc1ccc(N2CCN(C(=O)c3cc(-c4cc(OC)ccc4OC)nc4ccccc34)CC2)cc1	-13	-2.8%	?	2	-6.8	1.0
CC1CN(c2ccc(NC(=S)NNCCC#N)cc2)CC(C)O1 (configuration not stated)	-8	0.9%	-1	-2	-1.1	-0.2
CC1CCC(NC(=O)c2nn(C)c3c2CSc2ccccc2-3)CC1 (configuration not stated)	-7	3.3%	0	3	1.8	1.7
Cc1ccc(C(=O)Cn2nnc(-c3ccccc3)n2)cc1	-4	-0.9%	0	26	-0.2	-0.6
COc1ccc(OC)c(S(=O)(=O)N2CCC(C(=O)NCCc3ccc(OC)c(OC)c3)CC2)c1	16	1.4%	6	-1	1.2	-0.1
O=c1[nH]ncc2c3ccccc3n(Cc3cccc(Cl)c3)c12	-21	4.5%	1	0	-5.2	6.5
CC(NC(=O)CCNC(=O)c1ccc(C(C)(C)C)cc1)c1ccccc1 (configuration not stated)	-23	1.4%	-1	3	-3.2	1.0
CCn1c(CSc2nc(C)cc(C)n2)nnc1SCC(=O)N1CCCc2ccccc21	-5	4.9%[38.3 µM]	-2	2	-2.7	0.0
COc1ccc([N+](=O)[O-])cc1N(CC(=O)NC1CCCCC1)S(C)(=O)=O	-6	0.1%	-1	1	-3.2	-0.4
Cc1ccccc1S(=O)(=O)Cc1ccc(C(=O)NCCCN2CCN(C)CC2)o1	-13	1.6%	2	6	2.8	-0.3
COc1ccccc1CNC(=O)C1CCCN(S(=O)(=O)c2ccc3c(c2)CC(C)N3C(C)=O)C1 (configuration not stated)	-7	2.3%	-1	/	5.0	-0.4
CC(C)=CC(=O)OCC(=O)Nc1cc([N+](=O)[O-])ccc1F	-18	-0.3%	11	10	0.5	0.2
S=c1[nH]nc(Cc2cccc3ccccc23)o1	-4	-2.2%	7	-3	-0.4	0.3
CN(C)c1cc[n+](CC(=O)Nc2ccc(Cl)c([N+](=O)[O-])c2)cc1	-23	4.7%	-2	2	-4.8	-0.4
C=CCn1c(SCC(=O)N2CCOCC2)nc2scc(-c3ccco3)c2c1=O	-14	-2.9%	-15	-26	-1.0	0.7
COc1cc2c(cc1OC)C(c1ccc([N+](=O)[O-])cc1)NCC2 (configuration not stated)	-15	-1.0%	-20	/	0.4	-0.3
CCOC(=O)c1c(C)n(C)c2c1cc(OC(C)=O)c1ccccc12	3	5.6%	7	-2	0.0	0.6
CCC(=O)Nc1ccc(NC(=O)CSc2nc3cc4c(cc3cc2C)CCC4)cc1	5	0.7%[38.3 µM]	6	7	2.4	0.2
CCN(CC)S(=O)(=O)c1ccc(C(=O)Nc2cccc(C)c2)cc1	-12	2.4%[38.3 µM]	25	101	-1.1	2.8
Cc1ccc2[nH]c(=O)c(C3=NN(C(=O)CCC(=O)O)C(c4cccs4)C3)c(-c3ccccc3)c2c1 (configuration not stated)	-11	1.0%	-6	6	0.6	-0.1
O=c1c2c3c(sc2nc2sc(CN4CCOCC4)cn12)CCCC3	10	0.7%	10	-2	1.0	-0.5
COc1cccc(-n2nnc3c(=O)n(Cc4cccc(C)c4)cnc32)c1	-4	0.8%	-19	-3	-7.8	0.1
C[C@@H]1CN([C@H](C)CO)C(=O)CCCn2cc(nn2)CO[C@H]1CN(C)C(=O)Nc1ccc(-c2cccs2)cc1	-2	-1.9%	21	4	-4.4	0.3
O=C1C2C3C=CC(CC3)C2C(=O)N1c1nccs1 (configuration not stated)	-10	0.2%	?	-15	-5.6	0.0
Cc1ccc(S(=O)(=O)N2CCN(Cc3ccco3)CC2)cc1C	7	0.1%	0	-2	-2.9	-0.7
COc1ccc(C2C(=O)NN=C2C)cc1 (configuration not stated)	-2	2.1%	8	-1	5.1	1.1
C=CCNC1=C(Cl)C(=O)c2ccccc2C1=O	?	3.6%	?	-2	4.6	2.1
CSc1nnc([C@H](C)NC(=O)OC(C)(C)C)o1	-15	-14%[38.3 µM]	4	2	-2.0	-0.5
CCOc1ccc2nc(NC(=O)COC)sc2c1	-1	1.9%	-1	-6	-0.7	0.0
Cc1nn(CC(=O)N2CCN(C)CC2)c(=O)c2ccccc12	5	0.4%	9	1	2.8	-0.1
COCCn1c(SCC(=O)N2CCCc3ccccc32)nc2c(c1=O)SC(C)C2 (configuration not stated)	3	2.6%	0	0	2.4	0.8
C[C@H](NC(=O)c1nc[nH]c1C(=O)N[C@H](C)c1ccccc1)C(=O)OCc1ccccc1	10	15%	-9	-7	1.6	1.9
CCC(C(=O)O)P(=O)(c1ccc(Cl)cc1)c1ccc(Cl)cc1 (configuration not stated)	-2	0.6%	5	1	-0.9	0.0
Cc1onc(-c2ccccc2Cl)c1C(=O)N1CCN(S(=O)(=O)c2ccc(F)c(F)c2)CC1	1	2.4%	2	5	4.2	0.7
CCN1CCN(CCCNC(=O)C(=O)c2c(C)[nH]c3ccccc23)CC1	-6	1.6%	2	4	-0.8	2.3
CCCCN1CCc2[nH]c(=S)[nH]c(=O)c2C1	-17	-0.7%	10	-21	-1.6	0.5
CCN(CC)S(=O)(=O)c1cccc(C(=O)OCc2cc(=O)n3nc(C)sc3n2)c1	8	-1.5%	-6	-9	2.0	-0.5
O=C(CSc1nnc(CNC(=O)c2ccccc2)o1)NCC1CCCO1 (configuration not stated)	-9	-1.9%	8	-3	-0.7	0.0
CC(C)c1nnc(NC(=O)CCC(=O)Nc2ccc(F)cc2)s1	-23	3.8%	2	3	-7.5	0.3
CCN(C(=O)c1ccc2c(=O)n3c(nc2c1)CCCCC3)c1ccccc1C	-7	-0.6%	1	/	-2.9	-0.1
COc1ccc(-c2nc3n(c(=O)c2C#N)CCCS3)cc1	6	-0.3%	6	-5	-3.0	0.4
Cc1cccc(/C=N/NC(=O)c2ccc(NC(=O)c3ccc(F)cc3)cc2)n1	-10	2.6%	-25	-27	1.8	1.4
Cc1ccc(-c2nn(CCC(=O)O)cc2CCC(=O)O)cc1	-10	7.9%[38.3 µM]	2	7	-0.5	0.4
Cc1nc(-c2cc(-c3ccc(Cl)cc3)no2)cs1	1	5.1%	4	9	8.8	3.3
COC(=O)Cc1ccc(NC(=S)NCc2ccccc2Cl)cc1	-14	4.9%	15	1	8.5	0.7
COc1ccc(Br)c(C(=O)OCC(=O)Nc2cc(C)on2)c1	-10	0.8%	-3	3	1.6	0.6
O=C(Cc1cccs1)NCCS(=O)(=O)N1CCN(c2cccc(Cl)c2)CC1	11	0.7%	10	-18	1.8	-0.6
COCCNC(=O)c1cc(-c2ccc(-c3ccccc3)cc2)nc2ccccc12	-11	0.3%	-2	-19	0.1	1.9
CSc1ccccc1OCc1cc(C(=O)NCc2cnc(C)cn2)no1	-14	0.1%	0	-1	-4.5	-1.0
Cc1[nH]c(C)c(S(=O)(=O)NCc2ccc(F)cc2)c1C(=O)N1CCCC1	-10	-2.0%	4	-15	0.5	-0.2

2 entries picked at random from those above:
compound	D2 PAM	PINK1 expr mod	Six1-Eya2 inh	CtBP-E1A inh	D2 ag	TRPML1 ag
CSc1ccccc1OCc1cc(C(=O)NCc2cnc(C)cn2)no1	-14	0.1%	0	-1	-4.5	-1.0
O=C(Cc1cccs1)NCCS(=O)(=O)N1CCN(c2cccc(Cl)c2)CC1	11	0.7%	10	-18	1.8	-0.6

Remaining list, next part:
compound	D2 PAM	PINK1 expr mod	Six1-Eya2 inh	CtBP-E1A inh	D2 ag	TRPML1 ag
CCOC(=O)C(Cc1ccc(O)c([N+](=O)[O-])c1)N1C(=O)c2ccccc2C1=O (configuration not stated)	-19	0.4%	-8	4	-4.6	0.5
O=C(Nc1ccc(S(=O)(=O)N2CCc3ccccc32)cc1)c1ccc2c(c1)OCO2	-3	5.0%[38.3 µM]	-4	-6	1.0	1.9
C=CCn1c(CCNC(=O)c2cccs2)n[nH]c1=S	-1	-0.4%	0	5	3.7	1.2
Cn1nnnc1SCC(=O)Nc1ccccc1C(=O)NC1CC1	5	-0.2%	-1	6	-2.1	2.7
COc1cc(NC(=O)c2cc(OC)c(OC)c(OC)c2)cc(-n2cnnn2)c1	-3	2.1%	-4	2	2.3	-0.6
COc1ccc(CN(C)C(=O)[C@H]2O[C@@H](n3ccc(=O)[nH]c3=O)[C@H](O)[C@@H]2O)cc1OC	-4	0.8%	14	-9	-2.9	0.7
O=C(COc1ccc([N+](=O)[O-])cc1)Nc1ccc2c(c1)nc1n2CCOC1	-10	3.4%	3	-17	4.1	0.0
O=[N+]([O-])c1cc2c(c(CSc3nnc(Nc4ccccc4)s3)c1)OCOC2	-1	12%	-6	0	-1.3	1.4
Cn1c(SCc2ccccc2Cl)nc2c1c(=O)[nH]c(=O)n2C	-8	-1.2%	4	-5	0.8	0.1
COc1cccc(C(=O)NCCSc2c(C)[nH]c3ccccc23)c1OC	-4	1.0%	-12	-6	0.5	/

Screening data from PubChem BioAssay.
